Compound activity from PubChem.
T cruzi inh: inhibitors of intracellular T. cruzi growth, primary screen, luminescence, NIH3T3 host cells | T. cruzi beta-gal in NIH3T3, 90 h | inhibition, % (concentration not given with the values) | 300,000 tested, 1.4% active;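 active means mean inhibition across valid replicates above about 55%, limit read from the data; inconclusive means mean below that limit but half or more replicates reach it; inactive means mean below it, under half of replicates reach it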;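 further: signal also drops with host cell toxicity which is not excluded here; 0% = plate median of DMSO wells and 100% = zero luminescence signal; higher percent means less beta-gal luminescence so fewer parasites; stock transfer was 50 nL into about 50 µL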
Vif A3G: inhibitors of Vif binding to APOBEC3G peptide, primary screen, biochemical, TR-FRET, GST-Vif 1-94, biotin-A3G peptide, dose response retest (AID 1117319). 260,000 tested, 0.57% active. TR-FRET GST-Vif / biotin-A3G peptide binding; higher % means a stronger effect; test concentration not given here; strong numbers were not always called active. Virion infectivity factor (Human immunodeficiency virus type 1 group M subtype B (isolate …. one-dose inhibition, %; IC50 in µM for titrated hits;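 active means above the screen mean plus three standard deviations and confirmed in dose response; inconclusive means results disagree or hit not tested in dose response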;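 further: Vif residues 1-94 fused to GST binding biotinylated APOBEC3G peptide 110-148; 0% = full assay without inhibitor and 100% = GST in place of GST-Vif; retest series ran down from 100 µM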
Calb FLC: C. albicans growth inhibition with fluconazole, primary screen, CaCi-2 strain, Alamar Blue fluorescence. C. albicans CaCi-2 (fluconazole-resistant clinical isolate) + fluconazole, 48 h. 300,000 tested, 0.57% active. growth inhibition, % (concentration not given with the values);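 active means most replicates above 75%; inconclusive means exactly half above 75%; inactive means most below 75%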;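 further: all wells also contain fluconazole at 8 µg/ml as a sub-toxic cotreatment; 0% = median of DMSO wells and 100% = median of geldanamycin control wells; wells of about 8 µL received 7.5 nL stock; the first replicate is given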
A1 inh: caspase 3/7 activation in MEF A1-2A-BIM cells, primary screen, A1 inhibitor project, cell-based, luminescence, HTS; caspase activation, % (concentration not given with the values); Caspase-Glo 3/7 luminescence, 3 h; percent of clofoctol response, vehicle zero; 330,000 tested, 0.066% active;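 active means over half of replicate activation scores above 10%, or exactly half above 10 with the replicate mean above 10; inconclusive means replicate mean below 10 yet half the replicates above 10; inactive means over half of replicates below 10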;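 further: wells of about 30 µL received 50 nL stock; many hits fall short of the cut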
RanGTP-Imp inh: inhibitors of RanGTP-importin-beta interaction, primary screen, biochemical, FRET, CFP-Ran, YFP-importin-beta, homogeneous. inhibition, % (concentration not given with the values). cell-free CFP-Ran/YFP-importin-beta FRET ratio. Ran GTPase (GTP-bound) - importin-beta complex. AID 2216, 2009. 300,000 tested, 1.1% active;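 active means most replicates above 15%; inconclusive means exactly half above 15%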;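 further: 0% = DMSO wells and 100% = Ran loaded with GDP instead of GTP; wells of about 40 µL received 100 nL stock; the first replicate is given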
Ecoli rRNA inh: reduced GFP signal of wild-type E. coli, primary screen, bacterial rRNA inhibitor project, GFP/RFP fluorescence, OD600, single point; E. coli WT GFP vs humanized-ribosome RFP mutants, 24 h; active compounds read low; DMSO median 0, no signal -100; GFP signal change (wild-type ribosome), % (no concentration beside the values); 350,000 tested, 1.6% active; AID 720706, 2013;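 active means significant combined selectivity score with lowered wild-type GFP, culture density cut under 30%, mutant RFP and density less affected; inactive means any of these conditions unmet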; further: one replicate is shown; some compounds called inactive have numbers as strong as hits
Beta cell apopt: inhibitors of cytokine-induced beta cell apoptosis, primary screen, luminescence; INS-1E cytokine-induced death, ATP luminescence, 48 h; percent of positive-control rescue, neutral wells zero; protection from apoptosis, % (concentration not given with the values); 300,000 tested, 0.8% active; AID 435005, 2010;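 active means all replicates at 75% or more, or half of them and the mean; inconclusive means half reach 75% but not the mean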;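 further: 0% = cytokine-treated negative control wells and 100% = positive control rescue; higher means more ATP so stronger rescue from cytokine killing; wells of about 40 µL received 100 nL stock; the first replicate is given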
AF4-AF9 inh: inhibitors of AF4 peptide binding to AF9, primary screen, biochemical, AlphaScreen, biotin-AF4 peptide, FLAG-AF9, single point; inhibition, % at 10 µM; 350,000 tested, 0.47% active; AID 651704, 2012;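 active means every replicate reaching a set inhibition limit, whatever the replicate mean, cut at about 25% in these data; inconclusive means mean inhibition reaches that limit but some replicates miss it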;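 further: 0% = plate neutral control median and 100% = total signal loss; the record names both 10 and 1 µM as test concentration; the first replicate is given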
Target sequence (P42568 whole entry, looked up): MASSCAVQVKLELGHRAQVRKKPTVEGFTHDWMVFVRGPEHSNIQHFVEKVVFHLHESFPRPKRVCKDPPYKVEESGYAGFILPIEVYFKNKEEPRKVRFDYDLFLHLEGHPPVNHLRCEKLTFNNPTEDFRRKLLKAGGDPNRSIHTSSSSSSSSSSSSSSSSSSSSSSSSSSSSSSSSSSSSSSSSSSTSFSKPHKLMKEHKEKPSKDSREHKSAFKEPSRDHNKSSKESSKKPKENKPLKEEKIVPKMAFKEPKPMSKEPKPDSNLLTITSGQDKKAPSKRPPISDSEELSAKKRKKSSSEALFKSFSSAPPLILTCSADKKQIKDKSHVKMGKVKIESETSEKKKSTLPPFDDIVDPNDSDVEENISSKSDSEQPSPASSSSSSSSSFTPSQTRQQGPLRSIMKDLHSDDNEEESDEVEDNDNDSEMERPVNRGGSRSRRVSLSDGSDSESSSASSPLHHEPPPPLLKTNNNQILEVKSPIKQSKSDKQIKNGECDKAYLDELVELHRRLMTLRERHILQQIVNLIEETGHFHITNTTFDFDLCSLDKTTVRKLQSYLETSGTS
Ecoli rRNA inh OD600: further read-out of Ecoli rRNA inh, marked with its call; OD600 change, %; measured here: OD600 growth;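 optical density of the mix in the first replicate; 0 = DMSO median and -100 = no signal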
Ecoli rRNA inh RFP: recorded beside Ecoli rRNA inh, whose call it bears; RFP signal change, %; measured here: RFP humanized mutant strains;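 first replicate; 0 = DMSO median and -100 = no signal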
Active calls of the source: *; u = inconclusive; x = no result given; & = joins results of further samples. An excerpt; count on the stated rates, not on these rows.

SMILES	T cruzi inh	Vif A3G	Calb FLC	A1 inh	RanGTP-Imp inh	Ecoli rRNA inh	Ecoli rRNA inh OD600	Ecoli rRNA inh RFP	Beta cell apopt	AF4-AF9 inh
O=c1[nH]c(=O)n(Cc2ccccc2)c2c1CCC2	12	19%	-4	0.3	-5.2	0	3	-2.0	-4	-1.7
CC(OC(=O)Cc1c[nH]c2ccccc12)C(=O)Nc1ccccc1F (stereo unspecified)	-16	-3%	2	1.2	11	-7	0	0.4	-5	4.3
CCCNC(=O)C1CCN(c2cc(-c3ccccc3)nc3ncnn23)CC1	-5	-1%	-11	u	-2.2	x	x	x	0	-1.8
c1csc(C(c2nnnn2C2CCCC2)N2CCCC3(CCCCC3)C2)c1 (stereo unspecified)	25	-1%	6	-0.1	-5.3	x	x	x	15	x
C=CCNC(=O)/C(C#N)=C/c1c(C)nn(-c2ccccc2)c1Cl	-9	3%	u	0.7	1.9	-9	-3	4.7	-8	2.7
CCn1cc(C(=O)NCCC(=O)NCCCO)c(=O)c2cc3c(cc21)OCO3	-10	-14%	2	0.2	-6.0	10	15	3.0	-4	-10.0
CC1(C)N=C(c2cccc(F)c2)C(=O)N1	-20	5%	-24	0.9	-1.9	13	1	-7.5	-1	-11
CCC(CO)NC(=O)c1cc2c(s1)CCC2 (stereo unspecified)	-5	8%	-13	0.4	-0.4	x	x	x	-2	x
COc1ccc(OCCC(=O)N2CCN(C)CC2)cc1	-11	x	-4	0.5	u	15	12	0.4	-4	1.3
O=c1oc2cc(OCc3nn[nH]n3)ccc2c2c1CCCC2	-5	1%	-2	-0.5	9.8	x	x	x	-3	x
CCOC(=O)c1sc(NC(=O)CCCn2nc([N+](=O)[O-])cc2C)c(C(=O)OCC)c1C	40	x	0	0.9	4.6	-1	-5	-1.5	-2	2.6
Cn1c(=O)c2[nH]c(NCC3CCCO3)nc2n(-c2ccccc2)c1=O (stereo unspecified)	4	-3%	8	0.5	1.1	x	x	x	1	x
O=C(Nc1nc2c(Br)cc(Br)cc2c(=O)s1)C1CCC1	-11	-53%	0	0.5	1.3	-7	-3	1.2	-5	3.4
Cc1c(OCC(=O)NCCN2CCOCC2)ccc2c3c(c(=O)oc12)CCC3	-2	x	4	-0.1	u	-5	3	-0.8	-2	0.4
Cc1cc(OCc2n[nH]c(=S)n2-c2ccccc2)ccc1Cl	-2	x	19	0.1	3.8	-29	-31	1.0	x	-3.8
CCCCc1cc(=O)oc2cc(C)cc(OC(C)C(=O)NC(Cc3c[nH]c4ccc(O)cc34)C(=O)O)c12 (stereo unspecified)	-23	x	-6	0.6	-2.7	x	x	x	2	-0.6
Cc1[nH]c2ccccc2c1/C=C/C(=O)c1ccccc1	38	5%	28	0.8	41*	x	x	x	15	x
CCCn1c(=S)[nH]c2cc(C(=O)N3CCN(c4ccccc4OC)CC3)ccc2c1=O	-7	8%	-7	1.4	u	x	x	x	-7	x
COc1ccc(CCNC(=O)C/C(C)=N/NC(=O)c2ccc([N+](=O)[O-])cc2Cl)cc1OC	-3	11%	3	-0.3	-0.8	0	12	-2.3	2	-1.5
CC(NC(=O)c1ccc(F)cc1)c1ccccc1 (stereo unspecified)	-11	3%	-6	0.4	-0.6	x	x	x	-8	x
CC(C)(C)c1ccc(S(=O)(=O)N2CCC(c3nc4ccc(Cl)cc4[nH]3)CC2)cc1	55*	x	-23	-1.0	4.3	-8	-27	-5.0	x	-6.9
O=C1C=CC(=O)N1c1ccc(OC(F)F)cc1	x	u	x	-3.8	x	x	x	x	28	-2.7
O=C(CC1C(=O)N(c2ccccc2)C(=O)N1Cc1ccco1)Nc1ccccc1 (stereo unspecified)	-12	6%	4	-0.1	-3.9	2	2	-3.4	3	-0.6
Cc1ccc(N(CC(=O)NC2CCCC2)C(=O)CNC(=O)c2cccs2)c(C)c1	1	6%	-3	0.3	1.7	3	-1	-1.1	-7	-1.0
CC(=O)NS(=O)(=O)c1ccc(NC(=O)CCC(=O)Oc2ccc(C)cc2)cc1	-12	-4%	-8	0.6	-1.1	1	9	1.9	1	0.6
CCCCCCn1cc(C(=O)O)c(=O)c2cc(F)c(N3CCN(C)CC3)cc21	38	x	-2	0.9	4.9	x	x	x	-5	x
COc1ccc(-c2cc3c(=O)n(CC(=O)NC4CCN(Cc5ccccc5)CC4)ncn3n2)cc1	46	-5%&-2%	-4	-0.1	-6.0	x	x	x	8	x
Cc1cccc(C)c1NC(=O)C(=O)c1cn(C)c2ccccc12	0	u	-2	-0.3	-2.3	11	14	-2.4	-2	-0.4
Cc1ccc(S(=O)(=O)N(C)CC(=O)NNC(=O)CCNS(=O)(=O)c2cccc(C)c2)cc1	x	x	x	-0.8	x	5	8	2.0	-3	-0.7
O=c1cc(CN2CCc3ccccc32)c2ccc(O)cc2o1	-29	11%	u	0.1	43*	-54	-52	-8.3	-2	1.2
COc1ccc(NC(=O)c2cc([N+](=O)[O-])ccc2N2CCCCC2)cc1	8	x	6	-0.3	3.4	10	13	-1.0	0	-0.5
COc1ccc(CNC(=O)c2c[nH]c3ccccc3c2=O)cc1	-2	x	2	-0.7	0.3	3	5	1.3	-4	1.7
COc1ccc(C2=NOC(C(=O)Nc3cc(C)on3)C2)cc1OC (stereo unspecified)	-3	-3%	5	0.3	2.8	10	11	1.2	-5	-0.7
CCN(Cc1ccccc1)C(c1ccccn1)c1nnnn1C1CCCCC1 (stereo unspecified)	6	u	-12	-1.4	-2.3	x	x	x	10	x
Cc1ccc(S(=O)(=O)N2CCOCC2)cc1C(=O)OCC(=O)NCc1ccccc1	-3	-5%	2	-0.1	-1.1	5	-2	0.5	x	-1.4
CCOC(=O)c1c(NC(=O)CSc2nnc(CNc3ccc(Cl)cc3)o2)sc(C)c1C	7	14%	-3	1.1	1.1	x	x	x	2	x
COc1ccccc1-c1coc2c(CN3CCC(C)CC3)c(O)ccc2c1=O	-2	-10%	8	0.6	1.4	5	16	8.1	-13	3.3
Cn1c(=O)oc2cc(S(=O)(=O)NCCC(=O)Nc3ccc4c(c3)OCCO4)ccc21	-12	2%	-23	0.8	10	x	x	x	-3	x
COc1cc2c(O)c3c(c(-c4ccc5c(c4)OCO5)c2cc1OC)C(=O)OC3	57*	1%	82*	-0.7	2.3	x	x	x	54	x
CN(C)S(=O)(=O)Nc1ccc(Br)cc1F	9	3%	1	0.0	4.4	x	x	x	-1	x

6 successive records out of the list so far, for reference:
SMILES	T cruzi inh	Vif A3G	Calb FLC	A1 inh	RanGTP-Imp inh	Ecoli rRNA inh	Ecoli rRNA inh OD600	Ecoli rRNA inh RFP	Beta cell apopt	AF4-AF9 inh
CC(C)(C)c1ccc(S(=O)(=O)N2CCC(c3nc4ccc(Cl)cc4[nH]3)CC2)cc1	55*	x	-23	-1.0	4.3	-8	-27	-5.0	x	-6.9
O=C1C=CC(=O)N1c1ccc(OC(F)F)cc1	x	u	x	-3.8	x	x	x	x	28	-2.7
O=C(CC1C(=O)N(c2ccccc2)C(=O)N1Cc1ccco1)Nc1ccccc1 (stereo unspecified)	-12	6%	4	-0.1	-3.9	2	2	-3.4	3	-0.6
Cc1ccc(N(CC(=O)NC2CCCC2)C(=O)CNC(=O)c2cccs2)c(C)c1	1	6%	-3	0.3	1.7	3	-1	-1.1	-7	-1.0
CC(=O)NS(=O)(=O)c1ccc(NC(=O)CCC(=O)Oc2ccc(C)cc2)cc1	-12	-4%	-8	0.6	-1.1	1	9	1.9	1	0.6
CCCCCCn1cc(C(=O)O)c(=O)c2cc(F)c(N3CCN(C)CC3)cc21	38	x	-2	0.9	4.9	x	x	x	-5	x

Additional entries
SMILES	T cruzi inh	Vif A3G	Calb FLC	A1 inh	RanGTP-Imp inh	Ecoli rRNA inh	Ecoli rRNA inh OD600	Ecoli rRNA inh RFP	Beta cell apopt	AF4-AF9 inh
CC1CN(C(=O)Cn2cc(S(=O)(=O)CC(=O)N3CCOCC3)c3ccccc32)CC(C)O1 (stereo unspecified)	-14	-2%	3	0.0	3.1	20	16	2.8	-3	-1.6
O=C(Nc1cc2c(cc1Br)OCCO2)c1ccc(=O)[nH]c1	x	x	x	0.2	x	5	6	-1.3	4	-12
O=C(c1cccs1)N1N=C(c2ccccc2)CC1c1ccccc1 (stereo unspecified)	26	3%	-12	1.1	-3.2	13	-2	-1.1	19	4.0
COc1ccc(-c2c(-c3cc(OC)cc(OC)c3)n(C)c3ccc(-c4ccc5c(c4)OCCO5)cc23)cc1	x	x	x	0.3	x	4	0	-4.1	5	0.1
O=C(Nc1ccccc1F)C(=O)Nc1cccc2ccccc12	-4	-1%	-7	-5.1	1.0	6	9	2.6	-4	-1.4
COc1ccc(OCC(=O)NC(=S)Nc2ccc3c4c(cccc24)CC3)cc1	0	-62%	-7	0.1	-1.5	5	4	3.2	-3	-2.9
COc1ccc(CNc2nc(-c3cccnc3)nn2C(=O)CC(C)C)cc1	-4	0%	-2	u	-4.6	-13	-13	-3.8	-13	-2.2
CC(C)CN(C(=O)COC(=O)c1ccc(Cl)nc1)c1c(N)n(Cc2ccccc2)c(=O)[nH]c1=O	0	x	x	-0.1	-1.4	5	11	0.3	-2	-1.1
CCOc1cc(C(=O)NCCN2C(=O)S/C(=C\c3cccnc3)C2=O)cc(OCC)c1OCC	0	x	4	-1.3	-0.1	1	3	1.3	2	0.9
O=C(N/N=C/c1c[nH]c2ccc(Br)cc12)c1ccncc1	20	7%	6	-0.3	-4.5	x	x	x	-5	x
COc1cc(C(=O)NC(=S)Nc2ccc([N+](=O)[O-])cc2)cc(OC)c1OC	-11	x	7	-0.6	0.8	x	x	x	-8	x
O=C(C1CC(=O)N(c2ccc3c(c2)OCCO3)C1)N1CCN(c2ccccc2O)CC1 (stereo unspecified)	-7	x	0	-0.7	2.2	6	7	3.2	2	-3.7
C=CCCC(=O)N1CCC(CCC(=O)NC2CC2)CC1	12	-2%	16	0.5	0.7	4	11	-1.6	-6	-2.0
CCCC(=O)Oc1ccc(N(C(=O)CCC)S(=O)(=O)c2cccc([N+](=O)[O-])c2)cc1	-4	x	2	0.3	-1.8	x	x	x	3	x
O=C(c1ccc(S(=O)(=O)N2CCOCC2)cc1)N1CCN(c2ccccn2)CC1	x	x	-2	1.4	-5.0	-1	-2	2.5	-2	-1.4
